Source: PubChem BioAssay (National Center for Advancing Translational Sciences (NCATS))
Vaccinia mCherry = vaccinia inhibition (mCherry reporter) | Vaccinia virus mCherry reporter infection, fluorescence; about a quarter of the inactives have no number | Potency, µM (highest dose often 36.5 µM), for the others: top-dose activity change, negative = inhibition, hits mostly inhibitors | 310,000 tested, 0.63% active | AID 720579; active = well fitted inhibition curve with a large enough effect; inconclusive = small, poorly fitted or top-dose-only effect; inactive = no such curve, though single readings can be large or run the other way; tested in A549 cells; also: nearly all actives have a fitted effect of over 35% in size; inactives centre near -10
VACV Venus inh = vaccinia inhibition (Venus reporter); 330,000 tested, 0.46% active; Vaccinia virus Venus reporter expression, fluorescence; AID 720580; Potency, µM (top dose mostly 36.5 µM), for the others: at the highest dose activity change, negative = inhibition, actives largely listed as inhibitors; active means well fitted inhibition curve with a large enough effect; inconclusive means small, poorly fitted or top-dose-only effect; inactive means no such curve, though single readings can be large or run the other way; tested in A549 cells; also: nearly all actives have a fitted effect of over 30% in size; inactives centre near -10
* marks the source's active call; other numbers are inactive results; i = inactive; ? = inconclusive; / = not tested or not shown; & = joins results of further samples; [ ] = another dose, or the depositor's remark. % is scaled to controls: 0 for no effect and ±100 for the full control effect; potency is read from the fitted curve at half-maximal effect.

molecule,Vaccinia mCherry,VACV Venus inh
COc1ccc(C2NC(=O)NC(C)=C2C(=O)Nc2cc(C)ccc2C)cc1OC (centres undefined),/,-10%
COc1ccc(C(=O)Nc2cccc(-c3cn4ccsc4n3)c2)cc1OC,-6%[7.34 µM],-1%[7.34 µM]
COc1ccc(CCN(C)C(=O)c2cc(=O)c3ccccc3o2)cc1OC,-1%,-7%
O=C(Nc1ccccc1)c1cc(C2CCCCN2S(=O)(=O)c2ccc(F)cc2F)on1 (centres undefined),-18%,-11%
COc1ccc(C(=O)C2CCCN(C3CSCCSC3)C2)cc1OC (centres undefined),0%,-9%
N#Cc1ccccc1NC(=O)C(=O)NCC(c1ccc2c(c1)OCO2)N1CCN(c2ccccc2)CC1 (centres undefined),-18%,-1%
CCOC(=O)[C@H]1[C@H]2COc3cc(OC)ccc3[C@@H]2N2C(=O)c3cc(F)ccc3NC(=O)[C@@]12C,26%,-3%
CCCCNC(=O)c1cnc2n(c1=O)CCS2,i,-8%
COc1ccc(NC(=O)CSc2nncn2C)cc1,-6%,-1%
CC1CCN(c2cc3c(cc2F)c(=O)c(S(=O)(=O)c2ccc(Cl)cc2)cn3C)CC1,-2%,-14%
O=C(CN1CCOCC1)c1cccc([N+](=O)[O-])c1,-21%,-11%
CC(C)(C)c1cc(NC(=O)c2ccco2)n(-c2ccccc2)n1,-19%,6%
O=C(c1cn[nH]c1)c1cc(F)ccc1O,-30%,-13%
Cc1cccc(C)c1OCc1cc(C(=O)NCc2cn(C)nc2C)no1,-13%,-20%
COCCCNC(=O)c1c(N)n(-c2ccc3c(c2)OCO3)c2nc3ccccc3nc12,-2%,-17%
Cn1c(SCC(=O)Nc2cc([N+](=O)[O-])ccc2F)nnc1C(F)(F)F,-22%,-9%
Cc1cc(C(=O)CCC(=O)N2CCN(S(=O)(=O)c3ccccc3)CC2)c(C)s1,-1%,-13%
CCCc1[nH]c2ccc(C#N)cc2c1CCC,-13%,-22%
Cc1ccc(CCNC(=O)c2nn(C)c3c2CS(=O)(=O)c2ccccc2-3)cc1,i,-19%
CC(C)(C)c1nnc(NC(=O)C2CCN(C(=O)c3ccccc3)CC2)s1,-20%,-21%
O=C(NCc1ccncc1)c1cc2ccccc2nc1Cl,-6%,0%
Cc1ccc(S(=O)(=O)N(CC(=O)N2CCC(C(N)=O)CC2)c2cccc(C(F)(F)F)c2)cc1,i,-16%
Cc1ccc(S(=O)(=O)c2cc3c(=O)n4ccccc4nc3n(C3CCCC3)c2=N)cc1,-14%,-17%
CC(C)CN(C(=O)COC(=O)C1=COCCO1)c1c(N)n(Cc2ccccc2)c(=O)[nH]c1=O,-1%,-17%
CCOc1ccc(S(=O)(=O)N2CCN(c3cc(Cl)ccc3Cl)CC2)c2ccccc12,-3%,-2%
CC(C)OC(=O)N(C)C[C@@H]1OCc2cn(nn2)CCCC(=O)N([C@@H](C)CO)C[C@H]1C,-22%,-11%
CCOC(=O)C1CCCN(S(=O)(=O)CCNC(=O)c2ccc3c(c2)OCO3)C1 (centres undefined),-14%,-5%
CC(C)(C)OC(=O)N[C@@H](COCc1ccccc1)C(=O)N[C@@H](CO)[C@H](O)[C@@H]1C[C@@H]1C(=O)N1CCCC1,i,-15%
O=C(COC(=O)c1cnccn1)NCCc1ccc(Cl)cc1,-3%,-2%
c1ccc2c(c1)Nc1ccccc1S2,-11%,-2%
CC(C)c1ccc(OCc2ccc(C(=O)NN3CCN(C)CC3)o2)cc1,-12%,-1%
Cc1cccc(Nc2nnc(SCC(=O)N(C)C3CCS(=O)(=O)C3)s2)c1C (centres undefined),-18%,-17%

Full records from above. Order of screens: Vaccinia mCherry | VACV Venus inh
Shown for `COc1ccc(C2NC(=O)NC(C)=C2C(=O)Nc2cc(C)ccc2C)cc1OC` (centres undefined) : / | -10%
Shown for `CC(C)OC(=O)N(C)C[C@@H]1OCc2cn(nn2)CCCC(=O)N([C@@H](C)CO)C[C@H]1C` : -22% | -11%

(cont.)
molecule,Vaccinia mCherry,VACV Venus inh
CC1=CSC2=NC(=O)/C(=C\c3cccn3-c3ccc([N+](=O)[O-])cc3)C(=N)N12,i,?
Cc1cc(C)c(NC(=O)/C(=C/c2ccccc2)c2ccccc2)c(C)c1,i,-21%
Cc1ccc(-n2nc(C(=O)NCCN(C)C)c(=O)n(C)c2=O)cc1,3%,-3%
CC(c1nc2ccccc2c(=O)[nH]1)N1CCOCC1 (centres undefined),-10%,-8%
FC(F)(F)c1cc(Nc2nc3ccccc3c3nncn23)ccc1Cl,-18%,-13%
COc1cccc(C(=O)Nc2ccccc2-c2nnc(-c3cccc(OC)c3)o2)c1,-24%,-18%
Cc1sc2nc(CC(=O)NN)[nH]c(=O)c2c1C,i,-3%
Cc1ccc(NC(=O)CCc2ccc(S(=O)(=O)N3CCOCC3)cc2)c(O)c1,-26%,-15%
O=C(O)C1C2CC2CN1C(=O)c1ccc(Cl)cc1 (centres undefined),3%,-2%
S=c1[nH]nc(-c2ccccn2)n1/N=C/c1ccc(Cl)c(Cl)c1,?,-6%
Cc1cc(C)c(NC(=O)CCN2CCCCC2)c(C)c1,i,-5%
COc1ccc(C)cc1NC(=O)CSc1ccc(-c2sc(C)nc2C)nn1,i,-20%
CCOCCn1c(COc2ccc(C)cc2)nc2ccccc21,-16%,-16%
O=C(N/N=C/c1cc(Br)cc(Cl)c1O)c1ccc2c(c1)OCO2,?,?
COc1cc(-c2noc(C)c2C(=O)NCCO)cc(OC)c1OC,-21%,1%&-3%
CCOC(=O)C1CCCCN1C(=O)c1cnn(-c2nccc(-c3cc(C)sc3C)n2)c1C1CC1 (centres undefined),-24%,-19%

By substructure: the compounds so far with a tert-butyl group (3)
molecule,Vaccinia mCherry,VACV Venus inh
CC(C)(C)c1cc(NC(=O)c2ccco2)n(-c2ccccc2)n1,-19%,6%
CC(C)(C)c1nnc(NC(=O)C2CCN(C(=O)c3ccccc3)CC2)s1,-20%,-21%
CC(C)(C)OC(=O)N[C@@H](COCc1ccccc1)C(=O)N[C@@H](CO)[C@H](O)[C@@H]1C[C@@H]1C(=O)N1CCCC1,i,-15%

Other structures
molecule,Vaccinia mCherry,VACV Venus inh
COC(=O)c1cccc(Nc2ncnc3sccc23)c1,i,-12%
COc1cc(-c2nnc(COC(=O)c3ccc(C)o3)o2)cc(OC)c1OC,-16%,0%
Cc1ccc(-c2csc(Cc3nc(-c4ccc5c(c4)CCC(=O)N5)cs3)n2)cc1,-13%,-3%
O=C(NCCOc1cccc2cccnc12)c1cccs1,1%,-3%
C[C@@H]1CN([C@H](C)CO)C(=O)CCCn2nncc2CO[C@@H]1CN(C)S(=O)(=O)c1ccc(F)cc1,-16%,-9%
C/C(=N\NC(=O)c1ccc(F)cc1)c1ccc(NC(=O)Cc2ccccc2)cc1,-15%,?
COC(=O)CCC(=O)OC1(C)C(=O)C=C2C=C(C3CC3)N(C3CCCCC3)C=C2C1=O (centres undefined),i,-7%
CCC(C)N1CCCC1C(=O)Nc1c(C)cc(C)cc1C (centres undefined),/,-7%
COC(=O)C1=C(SC)N(c2ccc(OC)cc2)C(c2ccccc2)CC1=O (centres undefined),-10%,-12%
CCCS(=O)(=O)NC(=O)C1(C)CCCN(C(=O)c2cccc(OC(F)(F)F)c2)C1 (centres undefined),i,-1%
COc1ccc(/C=C/C(=O)Nc2ccc(-c3nnc4n3CCCCC4)cc2)c(OC)c1,13%,-27%
CCC(c1nnc(SCC(=O)Nc2ccc(C(N)=O)cc2)n1Cc1ccccc1)N(C)C (centres undefined),i,-9%
COc1cc(CC(=O)NNC(=O)c2cc(C)oc2C)cc(OC)c1OC,-13%,-9%
COc1oc(-c2ccccc2)nc1C(F)(F)F,-13%,-7%
CC[C@@H]1C(c2ccccc2)=NN(c2ccccc2)[C@H]1C(=O)N1CCOC1=O,-10%,-29%
COc1ccc(C(=O)NCC(c2cccnc2)N2CCN(c3ccc(F)cc3)CC2)cc1OC (centres undefined),i,-9%
O=C(c1cc(F)ccc1F)C1CCCN(C(=O)c2ccc(F)cc2Cl)C1 (centres undefined),-12%,-15%
C[C@@H]1C=C(C(=O)NC2CC2)O[C@H](OCc2ccc(CO)cc2)C1,1%,-4%
COc1cc2oc(=O)cc(-c3ccc(-c4ccc(OC(F)(F)F)cc4)cc3)c2c(OC)c1OC,17%,-4%
Cc1nn(Cc2ccc(Cl)c(Cl)c2)c(C)c1NC(=O)c1cn(-c2ccccc2)nc1-c1ccccc1,-9%,-5%
COc1ccc(C2NN=C(c3c[nH]c4ccccc34)C2O)cc1 (centres undefined),-3%,1%
CC1CCN(c2ccc(NC(=O)c3ccc(Br)o3)cc2)CC1,-22%,-25%
CC(C(=O)NCCc1nc2ccccc2[nH]1)n1cc([N+](=O)[O-])cn1 (centres undefined),-21%,-6%
C[C@H](O)[C@@H]1C(=O)N2CCc3ccc(N4CCOCC4)cc3[C@@H]2C[C@@H]1N(C)C(=O)Nc1ccccc1,i,-7%
Cc1cc(NC(=O)NC(=O)c2ccccc2F)no1,-12%,1%
CCOC(=O)c1c(NC(=O)c2c(C(=O)O)cccc2[N+](=O)[O-])sc(C)c1C,i,-5%
CCCCCN(C(=O)CCC(=O)OCC(=O)N1CCCCC1CC)c1c(N)n(CCCC)c(=O)[nH]c1=O (centres undefined),-18%,-2%
Cc1ccc(C(=O)NC(C)c2ccc(C)c(C)c2)s1 (centres undefined),3%,15%
COc1cc(O)c(CCC(=O)c2cc(OC)c(OC)c(OC)c2)c(OC)c1,-20%,-12%
CC(C(=O)OCC(=O)c1ccc([N+](=O)[O-])cc1)N1C(=O)C2C3CCC(C3)C2C1=O (centres undefined),i,-8%
O=C(Cc1ccc(Br)cc1)NC1CCN(Cc2ccccc2)CC1,5%,-3%
COc1ccc(-c2cc3nc(-c4ccccc4)cc(N4CCN(C(=O)c5ccsc5)CC4)n3n2)cc1,-4%,?
CC1CCN(CC(=O)Nc2ccccc2C(=O)c2ccccc2)CC1,-4%,-4%
CC(NC(=O)Cc1cccs1)C(c1cccs1)N1CCOCC1 (centres undefined),-12%,-11%
CCN1c2ccccc2-c2nc3ccccc3n2C1c1cccs1 (centres undefined),-9%,-8%
COc1ccccc1Nc1nc(N)nc(CN2CCN(Cc3ccc4c(c3)OCO4)CC2)n1,?,-6%[7.34 µM]
COc1ccccc1NC(=O)CN1CCSc2ccccc21,-9%,-16%
O=C(c1cc(F)ccc1F)N1CCC(N2CCC(C(=O)N3CCCC3)CC2)CC1,-9%,-11%
O=C(/C=C\c1ccccc1)Nc1ccc(NC(=O)c2ccco2)cc1,-11%,-17%
O=C(O)CCCN1C(=O)C(=O)/C(=C(/O)c2ccccc2)C1/C=C/c1ccccc1 (centres undefined),-2%,3%
CC(C)(CC(=O)O)CC(=O)NCc1c(Cl)cccc1Oc1ccccc1,i,-13%
COc1cc(Cc2cc(OC)c(O)c(OC)c2)cc(OC)c1O,-8%,-27%
CCC(C)Sc1ccc([C@H]2N[C@@](C)(C(=O)OC)[C@H]3C(=O)N(C)C(=O)[C@@H]23)cc1 (some centres undefined),-6%,-12%
O=C(CCCN1C(=O)c2cccnc2Oc2ccc(Cl)cc21)NCc1ccc(F)cc1,-14%,-8%
COc1cccc(-c2ccc3c(N)c(C(=O)Nc4cc(C(F)(F)F)ccc4OC)sc3n2)c1,i,-5%
COc1ccc2c(c1)OCc1c-2oc2cc(OC)ccc12,-16%,-12%
CC1CCCC(C)N1C(=O)COC(=O)c1cc(=O)[nH]c2ccccc12 (centres undefined),i,-2%
CCCc1cc(=O)oc2c(C)c(OCC(=O)Nc3cccnc3)ccc12,0%,1%
Cc1ccc(-n2ccnc(NCCc3ccc(S(N)(=O)=O)cc3)c2=O)cc1C,?,-29%
O=C(/C=C/c1ccccc1Br)c1ccc2c(c1)OCO2,i,-14%
COCCCCCCCCCCCC(=O)O,-2%[3.33 µM],-10%[3.33 µM]
CNc1ccc(C(=O)OCC(=O)NC(=O)NC2CCCCC2)cc1[N+](=O)[O-],i,3%
COc1ccccc1OCCCc1c(C)n[nH]c1C,-15%,-15%
COc1ccc(-c2ccc(CN3C(C(C)C)C(=O)N(Cc4cn(CC5CCCCC5)nn4)CCS3(=O)=O)cc2)cn1 (centres undefined),-29%,?
Cc1ccc(C)c(NC(=O)C2(C)CC3c4ccccc4C2c2ccccc23)c1 (centres undefined),-4%,-1%
CCO[C@H]1OC(C(=O)N2CCN(Cc3ccccc3)CC2)=C[C@@H](c2ccccc2)[C@@H]1CCCO,-14%,-3%
CCOC(=O)C1=C(C)NC(=O)NC1c1cccnc1 (centres undefined),/,-7%
CCCC1CCC(C(=O)n2nc(N)c3cc4ccc(OC)cc4nc32)CC1 (centres undefined),42%[activator],3%

Two entries from above, with each value named:
COCCCCCCCCCCCC(=O)O
  Vaccinia mCherry: -2%[3.33 µM] | VACV Venus inh: -10%[3.33 µM]
CNc1ccc(C(=O)OCC(=O)NC(=O)NC2CCCCC2)cc1[N+](=O)[O-]
  Vaccinia mCherry: i | VACV Venus inh: 3%
